PrP 5UTR inh = suppresses PrP 5' UTR mRNA reporter expression; 340,000 compounds, 0.35% hits; inhibition, % (test concentration not listed); cell-based PrP 5' UTR mRNA reporter, plate reader;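 active = every replicate at 50% or more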;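 also: 0 = median of the neutral control wells; tested in H4 reporter cells; numbers are from one replicate; inactives centre near -14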
BJeLR lethal = kills HRASV12-expressing BJeLR cells; 300,000 compounds, 0.17% hits; BJeLR (HRASV12) viability, CellTiter-Glo ATP luminescence, 48 h; reference of the scale not given here; AID 1554; inhibition, % (test concentration not listed);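 active = replicate mean above 50%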;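 also: 50 nL library stock added to about 25 µL; numbers are from one replicate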
Mtb hypoxia rep = reduces hypoxia-regulated biosensor signal in M. tuberculosis; M. tuberculosis hypoxia-regulated fluorescent reporter, fluorescence; fluorescence inhibition, % (concentration not given with the values); 300,000 compounds, 0.1% hits; AID 1159583;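 active = 35 to 45% if threefold the growth effect, above 45% if 1.5-fold the growth effect; inactive = the rest, general growth blockers included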;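 also: wells of about 50 µL received 100 nL stock; 0% = vehicle wells and 100% = reference inhibitor wells; whole bacteria with a GFP reporter of the hypoxia response; strong numbers were not always called active; many hits fall short of the cut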
Bead autofluor = counter-screen for toxin protease inhibitors: compound fluorescence. compound autofluorescence counterscreen, microsphere flow cytometry; active compounds read high. fluorescence intensity (concentration not given with the values). 360,000 compounds, 3.1% hits. AID 624483;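 active = at least 3 SD above the mean of all compounds, about 16000 in these data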;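 also: 100 nL of 1 mM stock went into each well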
RN4220 kill = S. aureus RN4220 growth inhibition. OD600, 16 h. AID 1259311. inhibition, % (no concentration beside the values). 330,000 compounds, 0.33% hits;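 active = z-score of -3 or lower and OD600 up to 0.18 on both plates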;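 also: plate controls were untreated cells for no effect and reference antibiotic for full effect; stock transfer was 100 nL into about 80 µL; one replicate is shown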
ugtP null kill = kills S. aureus RN4220 lacking UgtP. S. aureus RN4220 ugtP deletion, OD600 growth, 16 h; some inactives read as strong as hits. growth inhibition, % (test concentration not listed). 330,000 compounds, 0.54% hits. AID 1259309;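 active = z-score under -3 and OD600 up to 0.15 on both plates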;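 also: plate controls were untreated wells for no effect and antibiotic for full effect; wells of about 80 µL received 100 nL stock; the first replicate is given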
Mtb hypoxia rep growth = recorded beside Mtb hypoxia rep, whose call it bears; growth inhibition, %; measured here: M. tuberculosis growth (absorbance);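 0% = vehicle and 100% = reference antibiotic; read after six days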
* hit, by the source's call; · = no result given.

SMILES | PrP 5UTR inh | BJeLR lethal | Mtb hypoxia rep | Mtb hypoxia rep growth | Bead autofluor | RN4220 kill | ugtP null kill
O=S(=O)(c1cccs1)N1CN(Cc2ccccc2)c2nc3ccccc3nc21 | -56.8 | 2.2 | 9.2 | 2.3 | 2372 | -0.4 | 9.9
CC(C(=O)NCCCN1CCOCC1)n1cccc1C(=O)c1ccccc1 (stereo unspecified) | -7.8 | 0.1 | 10.4 | 2.8 | 3354 | -7.6 | 0.1
O=C1CCCN1CCC(=O)N1CCCC(CO)(Cc2ccccc2)C1 (stereo unspecified) | -67.9 | 2.1 | 6.3 | 14.1 | 4491 | 1.2 | 5.3
CCN(CC)c1ncnc2c1cnn2C | -17.1 | -7.4 | 5.9 | 6.0 | 12211 | 4.1 | 4.5
O=C(Nc1nccs1)c1ccc(COc2ccccc2)o1 | -18.3 | -2.4 | 10.0 | 6.6 | · | 7.0 | 0.6
Nc1nc(SCC(=O)Nc2cc(C(F)(F)F)ccc2Cl)[nH]c(=O)c1NC(=O)c1ccco1 | -4.8 | 3.1 | 7.0 | 4.9 | 5676 | 1.7 | 6.3
CC(=O)c1cc(-c2ccccc2)[nH]c1N1CCOCC1 | -22.8 | -1.7 | 3.9 | 9.3 | 8683 | 1.7 | -3.2
CCOc1cc(C(=O)N2CCC(CC3CC(c4ccccc4)=NO3)(C(=O)NCc3ccc(OC)cc3)CC2)cc(OCC)c1OCC (stereo unspecified) | -14.7 | -8.4 | 10.2 | 7.2 | 3827 | -4.6 | 13.5
Oc1ccc2ccccc2c1CN1CCCC1 | -14.1 | -4.2 | 11.3 | 6.2 | 6936 | 12.7 | 2.7
COc1ccc(C(=O)Nc2cccnc2)cc1 | -43.5 | 4.4 | -0.7 | 3.6 | 7425 | -0.2 | 9.6
CCCOc1ccc(/C(O)=C2/C(=O)C(=O)N(CCCOC)C2c2cccnc2)cc1 (stereo unspecified) | -20.1 | 15.2 | · | · | 2966 | · | ·
NC(=O)c1c(NC(=O)C2CCCO2)sc2c1CCC2 (stereo unspecified) | · | -0.2 | 4.0 | 8.2 | 11005 | 4.4 | 3.1
CN(O)C(=O)Nc1ccc([N+](=O)[O-])cc1 | -13.0 | 3.4 | 13.8 | 2.9 | 4594 | 5.5 | 6.1
CSc1nc(C)c(Cc2c(F)cccc2Cl)c(=O)[nH]1 | -9.4 | -0.2 | 1.8 | 4.5 | 3986 | 0.8 | 1.0
COc1ccccc1Nc1nnc(SCC(=O)N2CC(=O)Nc3ccccc32)s1 | -12.4 | -4.8 | 13.5 | 2.6 | 2009 | 1.3 | -1.6
COc1ccc(NC(=O)CSc2nc3ccsc3c(=O)n2Cc2ccccn2)c(OC)c1 | -4.9 | -1.8 | 1.3 | 16.8 | 3193 | 2.0 | 1.7
O=C(O)CC(Cc1ccccc1)c1ccc2c(c1)OCO2 (stereo unspecified) | -15.9 | 9.9 | -7.0 | -1.8 | 10044 | -3.3 | -5.7
CC(C)(C)NC(=O)CN(Cc1ccc2c(c1)OCO2)C(=O)CNC(=O)c1cccs1 | · | -1.7 | 10.7 | 4.0 | · | 5.1 | -5.5
Cc1cccc(-c2c3c(=O)n(C)c(=O)n(C)c3cn2C2CCCCC2)c1 | 0.2 | -5.1 | -3.4 | 4.8 | 4370 | -1.9 | 6.6
CCC1(OC(=O)CN)C(=O)OCc2c1cc1n(c2=O)Cc2cc3ccccc3nc2-1 (stereo unspecified) | 82.5* | 90.3* | 11.5 | -4.8 | 3598 | 3.7 | 3.4

Gathered by group, the compounds so far containing a halogen
SMILES | PrP 5UTR inh | BJeLR lethal | Mtb hypoxia rep | Mtb hypoxia rep growth | Bead autofluor | RN4220 kill | ugtP null kill
Nc1nc(SCC(=O)Nc2cc(C(F)(F)F)ccc2Cl)[nH]c(=O)c1NC(=O)c1ccco1 | -4.8 | 3.1 | 7.0 | 4.9 | 5676 | 1.7 | 6.3
CSc1nc(C)c(Cc2c(F)cccc2Cl)c(=O)[nH]1 | -9.4 | -0.2 | 1.8 | 4.5 | 3986 | 0.8 | 1.0

(listing goes on)
SMILES | PrP 5UTR inh | BJeLR lethal | Mtb hypoxia rep | Mtb hypoxia rep growth | Bead autofluor | RN4220 kill | ugtP null kill
O=C(CCS(=O)(=O)c1cccc2nonc12)N1CCCc2ccccc21 | -23.2 | -9.1 | 2.9 | 2.3 | 9205 | 3.3 | -5.2
CCn1cc(C(=O)NCc2cccnc2)c2cc(OC)c(OC)cc2c1=O | -22.3 | 2.6 | 3.2 | 2.6 | 9512 | 3.9 | -2.5
Cc1ccc(C(=O)CN2C(=O)NC3(CCCCC3C)C2=O)s1 (stereo unspecified) | · | · | 9.1 | 3.9 | · | 5.6 | 9.1
O=C(NCc1ccncc1)Nc1ccccc1F | -12.7 | 5.0 | 5.3 | 9.0 | 2074 | 2.1 | 8.1
CC(NC(=O)c1nc[nH]c1C(=O)NCC(=O)OCc1ccccc1)C(=O)OC(C)(C)C (stereo unspecified) | · | · | 4.1 | 3.1 | · | 6.0 | -4.7
O=C(NCCCCNC(=O)c1ccco1)c1ccco1 | -46.7 | 1.1 | 4.0 | 6.8 | 3531 | -1.1 | 4.1
Nc1ccc(S(=O)(=O)NC(Cc2ccccc2)C(=O)O)cc1 (stereo unspecified) | -13.5 | 20.5 | 5.5 | 10.0 | 3846 | 1.4 | 1.2
CC1(C)CC(c2nc(-c3ccc(Br)cc3)cs2)CCS1 (stereo unspecified) | -8.1 | 3.2 | 0.5 | -3.2 | 2466 | -7.5 | 8.8
CC(Oc1ccc2c3c(c(=O)oc2c1)CCCC3)C(=O)NCc1cccnc1 (stereo unspecified) | 1.3 | -1.5 | 7.0 | -9.5 | 4613 | 0.0 | 5.4
COCCN(C(=O)c1ccc(C#N)cc1)c1c(N)n(Cc2ccccc2)c(=O)[nH]c1=O | -13.0 | · | 5.3 | -0.7 | 8946 | 4.3 | -0.6

Whole records as entered above. Order of values: PrP 5UTR inh, BJeLR lethal, Mtb hypoxia rep, Mtb hypoxia rep growth, Bead autofluor, RN4220 kill, ugtP null kill
O=C(NCCCCNC(=O)c1ccco1)c1ccco1 across the screens: -46.7, 1.1, 4.0, 6.8, 3531, -1.1, 4.1
CC(Oc1ccc2c3c(c(=O)oc2c1)CCCC3)C(=O)NCc1cccnc1 (stereo unspecified) across the screens: 1.3, -1.5, 7.0, -9.5, 4613, 0.0, 5.4
O=C(CCS(=O)(=O)c1cccc2nonc12)N1CCCc2ccccc21 across the screens: -23.2, -9.1, 2.9, 2.3, 9205, 3.3, -5.2
COCCN(C(=O)c1ccc(C#N)cc1)c1c(N)n(Cc2ccccc2)c(=O)[nH]c1=O across the screens: -13.0, ·, 5.3, -0.7, 8946, 4.3, -0.6

(next part)
SMILES | PrP 5UTR inh | BJeLR lethal | Mtb hypoxia rep | Mtb hypoxia rep growth | Bead autofluor | RN4220 kill | ugtP null kill
COc1cc(-c2cc(=O)c3c(O)c(OC)c(OC)c(OC)c3o2)cc(OC)c1OC | 6.2 | -10.3 | · | · | 4691 | 1.7 | 9.9
CN(Cc1ccccc1)C(=O)CCNS(=O)(=O)c1ccc2c(c1)oc(=O)n2C | -51.1 | 5.0 | 8.1 | 8.2 | 20317* | 6.0 | -4.9
CCN(CC)CCNC(=O)Cn1nc(Cc2ccccc2)c2ccccc2c1=O | -23.8 | 10.2 | 20.1 | 13.1 | 5171 | 1.9 | 1.0
COCC(=O)N1CCC(Oc2ccc(C(=O)N3CCN(C)C[C@@H]3C(C)C)cc2)CC1 | -40.9 | 6.1 | 9.1 | -6.1 | · | 6.4 | -1.2
C=C(C)C1CC[C@]2(C(=O)O)CC[C@]3(C)C(CCC4[C@@]5(C)CCC(O)C(C)(C)C5CC[C@]43C)C12 (stereo partly specified) | · | · | -5.4 | 0.3 | · | 53.7 | 18.7
Cc1csc(NC(=O)CCn2c(=O)sc3ccccc32)n1 | -28.3 | -3.1 | 12.6 | 9.7 | 3752 | 4.4 | -1.8
C=CCn1c(-c2cccn(Cc3ccc(Cl)cc3)c2=O)n[nH]c1=S | -15.0 | -7.0 | 5.1 | -3.1 | 16100 | 0.4 | 0.0
C=CCC(NCc1ccco1)c1ccc(OC)cc1 (stereo unspecified) | -7.7 | -10.1 | -3.0 | 1.9 | 4093 | -2.2 | -6.9
CCCCNc1nnc(CCn2nc(C)c(Br)c2C)s1 | -8.7 | -8.7 | 6.1 | -2.6 | 1942 | 5.6 | 5.8
Cn1c(N)c(C(=O)COC(=O)Cc2ccc(Cl)c(Cl)c2)c(=O)n(C)c1=O | -3.8 | · | 0.4 | 6.7 | · | 7.9 | -2.2
Cc1c(NC2=NC3(CCCCC3)Cc3ccccc32)c(=O)n(C)n1-c1ccccc1 | -3.4 | -3.2 | -6.3 | -19.2 | 3862 | -0.9 | -0.9
CCc1ccc(-c2nc(CSCC(=O)N3CCN(c4ncccn4)CC3)c(C)o2)cc1 | 17.6 | 1.2 | 9.4 | 16.4 | 5986 | 3.7 | 0.9
COc1ccc(F)c(CN2CCC(CO)(Cc3cccc(C(F)(F)F)c3)CC2)c1 | 8.2 | 15.9 | 9.0 | -6.9 | 3476 | 1.9 | 5.8
CCn1c(SCC(=O)N/N=C/c2c[nH]c3ccccc23)nnc1-c1ccc(Cl)cc1 | -6.0 | 9.1 | · | · | 2352 | · | ·
CCCCN1CC(=O)N2C3c4ccc(OC)cc4OCC3C(C(=O)OCC)[C@]2(C)C1=O (stereo partly specified) | · | · | 13.3 | 4.9 | · | 7.1 | 5.3
COc1ccc(N2CC(C(=O)Nc3cccc(C)n3)CC2=O)cc1 (stereo unspecified) | -28.7 | 1.5 | -3.6 | 6.4 | 2504 | 3.1 | -1.0
O=C1c2ccccc2-c2n[nH]c(=O)c3ccc(N4CCCCC4)c1c23 | -25.8 | 8.5 | · | · | 4054 | · | ·
N#C/C(=C/c1ccncc1)c1nc2ccccc2c(=O)[nH]1 | -38.4 | -0.8 | 13.0 | 10.7 | 4706 | 3.9 | 11.5
Cc1cc(Cl)ccc1OCCCC(=O)NO | -11.7 | 0.9 | -4.1 | 14.6 | · | 13.8 | 2.4
Cc1ccc(NC(=O)Cn2c(=O)oc3ccccc32)c(C)c1 | -9.4 | -4.3 | 13.7 | 4.2 | · | 5.2 | 8.1
Fc1ccccc1/C=N/Nc1ccc(Cl)nn1 | -9.9 | 2.2 | · | · | 4179 | · | ·
Cc1noc(C)c1COc1ccccc1C(=O)NC(C)c1ccc(Cl)cc1 (stereo unspecified) | -12.2 | · | -4.9 | 2.0 | 3844 | 2.9 | -3.6
CCOc1ccc(CN(C)CC(=O)Nc2cccc(C)c2)cc1OC | -2.1 | -6.0 | 5.8 | 12.2 | 4431 | 14.7 | 6.1
Cc1cc(NS(=O)(=O)c2ccc(NC(=O)C(C)Oc3ccc(Cl)cc3)cc2)no1 (stereo unspecified) | -24.2 | -13.6 | 5.8 | 12.2 | 17111* | 9.3 | -1.3
CCC(Sc1nc(C)cc(C)n1)C(=O)Nc1nccs1 (stereo unspecified) | -8.2 | -3.2 | 22.7 | 11.7 | 5907 | 1.8 | -4.6
COc1ccc(NC(=O)CN2C(=O)NC(C)(c3ccc4c(c3)OCCO4)C2=O)cc1S(N)(=O)=O (stereo unspecified) | -5.5 | · | 6.0 | 7.5 | 3857 | 1.4 | 5.3
Cc1cc(Br)c(S(=O)(=O)NCc2ccncc2)cc1C | -5.3 | 16.9 | 5.9 | 7.4 | 5655 | 3.1 | 3.2
Cc1ccccc1SCC(=O)N1CCN(c2ccc(C(F)(F)F)cn2)CC1 | -5.9 | 10.8 | 1.2 | 6.1 | 7314 | -0.8 | 0.5
CC(C)Cc1nnc(NC(=O)C2CCN(C(=O)c3ccc(Cl)cc3)CC2)s1 | -32.8 | 14.0 | 9.1 | 3.4 | 5211 | -3.1 | 6.0
C/C(=N\NC(=O)c1cc2ccccc2cc1O)c1ccccn1 | 25.4 | 8.1 | · | · | 4424 | · | ·
Cn1c(=O)[nH]c(=O)c2c1nc(NCCc1ccccc1)n2CC(O)COc1ccccc1 (stereo unspecified) | -1.0 | 13.4 | 1.3 | 7.5 | 3231 | 5.4 | -8.5
CC(CN1C(C)CCCC1C)OC(=O)c1ccccc1Br (stereo unspecified) | -17.8 | 2.3 | -4.5 | 9.0 | 3552 | 2.6 | 10.2
Oc1ccc(C(c2nnnn2C2CCCC2)N2CCc3ccccc3C2)cc1 (stereo unspecified) | -12.9 | -3.8 | · | · | 4974 | -0.5 | -5.8
CC(C)(C)NC(=O)C(c1cccs1)N(Cc1cccs1)C(=O)c1csnn1 (stereo unspecified) | -40.5 | -2.1 | 1.2 | 5.0 | 3755 | 0.7 | 0.1
COc1ccc2c(c1)[nH]c1c(=O)n(CC3CCCO3)cnc12 (stereo unspecified) | -4.5 | -13.2 | 7.6 | 2.0 | 17272* | 0.8 | -1.0

Screening results deposited in PubChem by several laboratories.
